PV pol inh: inhibitors of poliovirus RNA polymerase binding and polymerization; P03300; poliovirus polymerase elongation, fluorescence polarization; hits give low values; AID 588519; % elongation, % (compound at 16.7 µg/mL); hit rate 0.66% among 150,000; in the data active means % elongation below about 90%; further: some results filed as inactive read as strong as hits
Target sequence (P03300 1749-2209 limits assumed): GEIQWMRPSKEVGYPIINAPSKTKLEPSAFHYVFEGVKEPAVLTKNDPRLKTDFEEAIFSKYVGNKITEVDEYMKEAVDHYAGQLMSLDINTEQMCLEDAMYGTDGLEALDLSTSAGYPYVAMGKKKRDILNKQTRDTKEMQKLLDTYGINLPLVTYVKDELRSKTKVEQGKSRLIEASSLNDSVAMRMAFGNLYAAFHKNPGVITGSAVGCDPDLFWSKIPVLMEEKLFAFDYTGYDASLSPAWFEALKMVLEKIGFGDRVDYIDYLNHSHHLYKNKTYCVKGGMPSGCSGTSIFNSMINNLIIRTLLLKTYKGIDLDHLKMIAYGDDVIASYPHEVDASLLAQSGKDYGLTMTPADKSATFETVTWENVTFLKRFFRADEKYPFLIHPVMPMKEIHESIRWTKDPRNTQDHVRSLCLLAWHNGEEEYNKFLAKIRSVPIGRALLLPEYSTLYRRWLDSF
MbtI inh: MbtI salicylate synthase inhibition | P9WFX0 | purified MbtI enzyme, fluorescence intensity read-out | inhibition, %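 (about 17 µg/mL by stock and volumes)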 | hit rate 0.89% among 100,000 | AID 493033;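 active means above 50% in both replicates, above 80% if mildly self-fluorescent; inactive means the rest, strongly fluorescent compounds included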;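 further: 0% = mean of negative and 100% = mean of positive controls; one replicate is shown; some compounds called inactive have numbers as strong as hits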
MenB inh: inhibitors of Mycobacterium tuberculosis MenB enzyme | P9WNP5 | MenB enzyme assay, absorbance read-out; some hits fall short of the stated cut | inhibition, %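 (about 12 µg/mL by stock and volumes)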 | hit rate 0.43% among 100,000;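 active means mean of two replicates above 30%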;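 further: 0% = no compound and 100% = wells with inactive enzyme; the first replicate is given; strong numbers were not always called active; inactives centre near -10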
Target sequence (P9WNP5 whole entry, looked up): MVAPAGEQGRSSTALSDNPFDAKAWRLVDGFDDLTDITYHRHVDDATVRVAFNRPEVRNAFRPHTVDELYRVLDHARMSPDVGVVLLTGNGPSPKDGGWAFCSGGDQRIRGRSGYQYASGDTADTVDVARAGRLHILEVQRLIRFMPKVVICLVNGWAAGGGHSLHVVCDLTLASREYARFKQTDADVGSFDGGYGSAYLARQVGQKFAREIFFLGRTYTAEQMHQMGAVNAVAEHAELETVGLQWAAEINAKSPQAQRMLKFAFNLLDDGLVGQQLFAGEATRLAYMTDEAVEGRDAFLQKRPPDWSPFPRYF
PV pol inh intensity: recorded beside PV pol inh, whose call it bears; % elongation; measured here: total intensity read-out; formula for this scale not given here;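 total fluorescence in place of polarization; lower means less elongation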
An asterisk follows results filed as active; · = no result given; & = joins results of further samples.

SMILES	PV pol inh	PV pol inh intensity	MbtI inh	MenB inh
CCC(Oc1cccc(Cl)c1)C(=O)NN1CCN(C)CC1 (stereo not drawn)	100	103	-7	-1
COc1ccc(N(C)C(=O)NCc2noc3ccccc23)c(OC)c1	100	101	-1	-9
Cc1ccc(S(=O)(=O)N(C)CC(=O)N2CCC(C)CC2)cc1	101	99	0	-5
O=C(Cn1[nH]c(=O)c2ccccc2c1=O)NC1CCCc2ccccc21 (stereo not drawn)	107	113	-6	-17
C[N+]12CCCCC1C(COC(=O)c1ccccn1)CCC2 (stereo not drawn)	106	114	·	3
CCN1CCN(c2c(C(=O)c3ccc(OC)cc3)cnc3ccccc23)CC1	100	104	2	5
COc1ccc(C2=NN(C(=O)CNc3ccccc3C(=O)Nc3ccccc3)C(c3ccco3)C2)cc1 (stereo not drawn)	104	100	97	-13
Cc1ccccc1N(CC(=O)NC1=NCCS1)S(C)(=O)=O	103	104	-5	13
CC12C=CC(=O)C=C1CCC1C2=CCC2(C)C1CC[C@@H]2C(=O)CN1CCN(c2cc(N3CCCC3)nc(N3CCCC3)n2)CC1 (stereo partly drawn)	99&101	102&112	-3	-7
O=c1[nH]c2ccccc2n1CN1CCC(c2nc3ccccc3s2)CC1	102	97	3	11
Cc1ccc(NC(=O)c2ccc3ncsc3c2)c(O)c1	113	127	-3	-21
c1cnc(SCc2cn3ccsc3n2)nc1	103	109	-1	-2
COc1cccc(C(=O)NCc2nc(-c3ccccc3Cl)no2)c1	102	104	-3	-11
O=C(CN1CCCCC1)Nc1nonc1NC(=O)CN1CCCCC1	101	104	-12	-12
Cc1[nH]c2ccccc2c1C(=O)C(C)N1CCN(C(=O)c2ccccc2)CC1 (stereo not drawn)	104	106	14	-7
COc1ccc(C(CCNCc2ccccc2)C2CCOC(C)(C)C2)cc1 (stereo not drawn)	109	111	·	-10
Fc1ccc(-n2c(Cc3ccsc3)n[nH]c2=S)cc1	100	98	23	-36
CCc1ccc[n+](-c2[nH]c(=O)sc2/C=N/N=C(/N)[O-])c1	103	101	19	-94
CCN(CC)S(=O)(=O)c1ccc(Cl)c(C(N)=O)c1	100	101	-4	-14
CCN(CC)CC(=O)Nc1sc2c(c1C#N)CCCC2	102	102	-10	-34
CC(C)CCn1c(=O)c2ccccc2n2c(CSc3n[nH]c(N)n3)nnc12	102	107	3	-16
CN1/C(=C/C(=O)CSC2CCCC2)C(C)(C)c2ccccc21	108	109	10	·
CCCCOc1ccccc1C(=O)N(Cc1cccc(F)c1)Cc1ccco1	103	101	8	-14
COC(=O)c1sc(N)c(C(=O)OC)c1COC(=O)CSc1nnnn1-c1cc(C)ccc1C	111	115	19	-6
CC1CCN(S(=O)(=O)c2cn(CC(=O)N(C)Cc3ccccc3)c(=O)c3ccccc23)CC1	100	97	24	-13
Cc1cc(=O)oc2cc(OCC(=O)Nc3ccccc3)ccc12	101	109	117	11
O=C1CC(C(=O)Nc2cccc(F)c2)n2c(nc3ccccc32)N1 (stereo not drawn)	105	103	-4	-24
COc1ccc2nc(Nc3nc4ccccc4s3)sc2c1	101	106	120	-22
CC1CCN(C(=O)CSc2nc(-c3ccco3)nc3c2c(=O)n(C)c(=O)n3C)CC1	103	97	-9	-18
CSc1cccc(NC(=O)CNS(=O)(=O)c2ccc(C)cc2)c1	98	105	-7	-6
CCS(=O)(=O)c1ccc(OC)c(N2NOC=C2O)c1	101	99	4	-18
Cc1noc(C)c1-c1nc(CS(=O)(=O)c2ccsc2)no1	102	99	-2	-12
COc1ccc(C)cc1CCNCc1cnn(-c2ccccc2)n1	97	99	-1	14
c1ccc2c(c1)CCN(c1nc3cc4c(cc3s1)OCO4)C2	99	99	48	-42
c1cncc(CN2CNc3nc4ccccc4n3C2)c1	102	103	-10	-11
CCc1nn(C(C)C(=O)N2CCN(c3cccc(OC)c3)CC2)c(=O)c2cc3occc3n12 (stereo not drawn)	98	101	-6	-13
Cc1c(CO)c2ccccc2n1Cc1ccccc1	100	102	18	-13
Cc1ccccc1OCC(=O)NN=C1CCN(C)CC1	102	103	-10	-4
Cn1c(=O)c2cnc(N3CCCCC3)nc2n(C)c1=O	101	111	-99	-16
COC(=O)c1cnc(Nc2ccccc2)nc1C(F)(F)F	105	101	-5	-22

Random excerpt: five compounds from above.
SMILES	PV pol inh	PV pol inh intensity	MbtI inh	MenB inh
CN1/C(=C/C(=O)CSC2CCCC2)C(C)(C)c2ccccc21	108	109	10	·
c1ccc2c(c1)CCN(c1nc3cc4c(cc3s1)OCO4)C2	99	99	48	-42
c1cncc(CN2CNc3nc4ccccc4n3C2)c1	102	103	-10	-11
Cc1ccccc1OCC(=O)NN=C1CCN(C)CC1	102	103	-10	-4
CCCCOc1ccccc1C(=O)N(Cc1cccc(F)c1)Cc1ccco1	103	101	8	-14

Next section.
SMILES	PV pol inh	PV pol inh intensity	MbtI inh	MenB inh
CC(C)C(c1nnnn1C(C)(C)C)N(Cc1cc2cc3c(cc2[nH]c1=O)OCCO3)C1CCCCC1 (stereo not drawn)	103	101	18	-20
CC(=O)N1CCN(C(c2ccccc2)c2ccccc2)CC1	99	104	-12	-20
NC(=O)c1ccc(F)c(F)c1	100	96	3	-20
CCc1nc2ccc(C(=O)NC)cc2nc1CC	104	102	-8	-25
CCCCOc1ccc2c(c1)C(=O)c1cc(O)ccc1-2	100	103	-11	-4
CN1C=CC=C/C1=C1\SC(=S)N(Cc2ccccc2)C1=O	101	96	0	-118
CC(C)(Sc1cc(C(C)(C)C)c(O)c(C(C)(C)C)c1)Sc1cc(C(C)(C)C)c(O)c(C(C)(C)C)c1	102&99	100&99	-10&-7	-10&-2
CC1=NN(CCC(=O)O)CC1	104	103	-3	0
CSCCNC(=O)Nc1ccc(Cl)cc1	102	98	15	5
CC(C)NC(=O)C1CCN(C(=O)c2ccc(-n3ccc4ccccc43)s2)CC1	100	101	25	-17
CC(C)(C)CC(C)(C)NC(=O)C1CCCO1 (stereo not drawn)	99	105	-12	7
N#Cc1cc2c(ccc3ccccc32)oc1=O	98	113	-90	-48
COc1cccc(CN(C)Cc2cc(=O)oc3cc(O)c(Cl)cc23)c1	94	98	22	-48
CCN(CC)C(=O)CSc1nc(N)c(C#N)c(CC(C)C)c1C#N	106	108	·	-2
N=C(N=Nc1c(O)n(Cc2ccccc2)c2ccccc12)SCC(=O)Nc1ccccc1	99	102	0	-170
CCN(CC)C(=O)c1cc2ccccc2oc1=O	99	100	8	-25
COc1ccc(CNC(=O)c2cccn3c(=O)c4c5c(sc4nc23)CCCC5)cc1	100	103	0	-12
Cc1nc(NCC2CCCO2)nc2c1C(=O)CC(C)(C)C2 (stereo not drawn)	102	100	0	-31
CC1(C)OC(=O)C(=Cc2ccc(F)cc2)C(=O)O1	102	101	2	1
O=C(COc1ccc(Cl)cc1)NCCN1CCCCC1	98	104	7	-4

Limited to MenB inh, PV pol inh and PV pol inh intensity, for some of the entries so far:
Structure,MenB inh,PV pol inh,PV pol inh intensity
CC1=NN(CCC(=O)O)CC1,0,104,103
CCN(CC)C(=O)CSc1nc(N)c(C#N)c(CC(C)C)c1C#N,-2,106,108
O=C(COc1ccc(Cl)cc1)NCCN1CCCCC1,-4,98,104

Continued:
SMILES	PV pol inh	PV pol inh intensity	MbtI inh	MenB inh
N#C/C(=C\c1ccc(Cl)c(Cl)c1)c1ccc(NC(N)=O)cc1	105	106	-107	-12
Fc1cccc(Oc2ncnc3scc(-c4ccccc4)c23)c1	101	102	-2	·
CCCn1cc(S(=O)(=O)c2ccc(OC)cc2)c(=O)c2cc(F)c(N3CCN(C)CC3)cc21	101	97	113	5
CCOc1ccc(CCN=C2CC(c3ccccc3)CC(=O)/C2=C(/O)CC)cc1OCC (stereo not drawn)	104	106	·	-25
Cc1ccc2cc3cc(C(=O)NCc4cccs4)sc3nc2c1	104	108	25	-40
CN(C(=O)CN1N=NC2C(=O)N(c3ccc(Br)cc3)C(=O)C21)c1ccccc1 (stereo not drawn)	102	102	-8	-11
CC(C)CNC(N)=O	108	114	-13	0
CC1CCN(C(=O)COc2ccc(Br)cc2)CC1	109	113	·	-8
c1ccc2oc(SCc3nc4ccccc4s3)nc2c1	112	121	2	-5
COc1ccc(CNCc2cccs2)c(OC)c1OC	103	104	-5	-75
CC(=O)OCC(=O)[C@@]1(O)[C@H](C)CC2C3CCC4=CC(=O)C=C[C@]4(C)[C@@]3(F)[C@@H](O)C[C@@]21C (stereo partly drawn)	100	100	-9	3
CC1CC(CC(C)C(=O)Nc2cc(Cl)ccc2Cl)C(=O)O1 (stereo not drawn)	100	103	-7	-40
CC(=O)NCC(=O)OCc1ccc(C(C)(C)C)cc1	102	103	3	-2
O=C(CCc1ccccc1)NNc1cc(N2CCCCC2)nc(N2CCCCC2)n1	101	102	-4	-27
CN(C)c1cc(NCc2ccco2)c2c3c(onc13)-c1ccccc1C2=O	102	170	0	0
CC(C)C(=O)Nc1ccc(NCc2cccs2)cc1	101	102	-2	-65
CCn1c(NN)nc2sc3c(c2c1=O)CC(C)(C)OC3	103	100	8	6
CCOC(=O)c1ccc(N=Cc2c(O)n(CC)c(=O)[nH]c2=O)cc1	100	101	-4	-5
CCCNc1c(NC(=O)C2CCC(C)CC2)c(=O)oc2ccccc12 (stereo not drawn)	101	102	-17	-10
Cn1cnnc1SCC(=O)NCc1ccccc1	104	104	0	16
O=C1CC(C2CCCC=C2N2CCOCC2)C(=O)N1Cc1ccccc1 (stereo not drawn)	99	103	-17	-3
O=C(Oc1cccc(Br)c1)C1CCCCC1	101	102	-7	·
O=C(c1ccccc1)c1ccc(OCC(O)CNCC2CCCO2)cc1 (stereo not drawn)	104	107	-2	-3
CC(=O)Oc1c(C)cc(O)c2ccccc12	99	101	-144	-2
O=C(CN1C(=O)C2CC=CCC2C1=O)NCCc1ccccc1 (stereo not drawn)	102	96	-21	8
Nc1sc(=S)n(-c2ccccc2)c1-c1nc2ccccc2s1	49	258	·	-28
COC(C(=O)N/N=C/c1cc(Br)c(C)o1)c1ccccc1 (stereo not drawn)	103	100	9	-26
O=C(CN1CCC(Cc2ccccc2)CC1)c1c[nH]c(C(=O)N2CCCC2)c1	102	101	17	-12
CN1NC2(CCCCC2)N(c2ccccc2)C1=S	103	112	·	-14
CC1=NN(c2ccccc2)C(c2ccc(OCC(=O)N3CCCC3)cc2)C1 (stereo not drawn)	106	107	5	-27
CCC(=O)Nc1cccc(-c2nc3ccccc3o2)c1	102	106	·	-2
Cc1ccc(C(=O)c2oc3ccccc3c2NC(=O)C2COc3ccccc3O2)cc1 (stereo not drawn)	104	107	13	-10
CC(C)NC(=O)c1cn2c3c(ccc(Cl)c3c1=O)OC(C)C2 (stereo not drawn)	105	108	-71	-14
CC(C#N)Sc1nnc(-c2ccccc2F)n1CCc1ccccc1 (stereo not drawn)	99	99	2	-8
c1ccc(-c2cnnn2-c2ccccc2)cc1	103	100	-7	7
COC(=O)C1=CN(CC(C)C)C=C(C(=O)OC)C1c1cccs1	100	102	-465	-55
Cc1cc(C)nc(SCc2csc(N)n2)n1	98	102	1	-24
CCOC(=O)c1c(NC(=O)CSc2n[nH]c(N)n2)sc(C(=O)N(CC)CC)c1C	101	108	1	-19
CC(C)CN1C(=O)c2ccc(C(=O)O)cc2C1=O	99	102	-5	-19
O=C(O)c1ccccc1C(=O)N1CCN(c2ccccc2)CC1	104	110	-6	·

Looked up above:
PV pol inh intensity result of c1ccc(-c2cnnn2-c2ccccc2)cc1 is entered as 100
PV pol inh intensity result of CC(C)NC(=O)c1cn2c3c(ccc(Cl)c3c1=O)OC(C)C2 (stereo not drawn) is entered as 108

More entries follow:
SMILES	PV pol inh	PV pol inh intensity	MbtI inh	MenB inh
Cc1ccc(N2C(=O)/C(=C/C=C/c3ccccc3)SC2=S)cc1	101	100	1	-21
c1ccc(CSc2nnc(-c3cccs3)n2-c2ccccc2)cc1	101	96	12	-42
Cc1ccc(NCc2cccc3c2CN(CC2CCCO2)C3)cc1 (stereo not drawn)	101	102	-4	1
Cc1ccc(Cn2cnc3c(cnn3C)c2=O)cc1	106	104	-10	-23
O=C(C1CC(=O)N(c2ccccc2)C1)N(Cc1ccccc1)Cc1ccccc1 (stereo not drawn)	101	102	-6	-14
Cc1cc(C(=O)N2N=C(C3CC3)CC2(O)C(F)F)cs1 (stereo not drawn)	102	102	-3	11
OC(CN1CCN(c2ccccc2F)CC1)Cn1nnnc1-c1ccccc1 (stereo not drawn)	104	100	-8	-14
CCc1nn(CC(=O)N2CCN(C)CC2)c(=O)c2cccn12	106	101	-11	2
Cc1ccc(Nc2nc(N)nc(CSc3nccn3C)n2)cc1	103	100	4	27
CC(=O)Nc1sc2c(c1C#N)CCCCC2	104	103	·	-23
Cc1noc(C)c1S(=O)(=O)N1Cc2ccccc2CC1C(=O)Nc1ccc(Cl)cc1 (stereo not drawn)	103	104	-7	-40
CCc1nnc(NC(=O)c2ccc3c(c2)S(=O)(=O)N=C2CCCCCN23)s1	107	103	9	0
C=CCSc1nc(C)cc(C)c1C#N	101	103	·	-2
CC1CC(C)CN(S(=O)(=O)c2ccc3c(c2)CCN3C(=O)CCC(=O)O)C1 (stereo not drawn)	102	102	-8	-18
FC(F)(F)COc1nc(OCC(F)(F)F)nc(N(c2ccccc2)c2ccccc2)n1	102	105	-6	-61
COc1ccc(NC(=O)Cn2c(=O)oc3cc(S(=O)(=O)NCc4ccccc4)ccc32)cc1OC	99	103	-13	-6

Compound activity (PubChem BioAssay)

Random draw from the library; overall some 1.8% were active at least once.
